Sfp inh: inhibitors of Bacillus subtilis Sfp phosphopantetheinyl transferase. Q9F4F7. Biochemical Sfp PPTase activity, qHTS. Potency, µM, for inactives: max response, negative = inhibition, most hits filed as inhibitors. 310,000 tested, 3.5% active; active = well fitted inhibition curve with a large enough effect; inconclusive = small, poorly fitted or top-dose-only effect, or another doubt; inactive = no such curve, though single readings can be large or run the other way;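 note: the enzyme is Sfp with the accession as filed and its product quenches rhodamine fluorescence; potency is the fitted concentration of half-maximal effect; 0% = enzyme reaction without inhibitor and -100% = no enzyme wells; top concentration of the series not given in the record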
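Compounds were incubated with enzyme (final 15 nM) for 15 min at room temperature before substrate addition started the reaction. Fluorescence at 525 nm excitation, 598 nm emission was recorded immediately and after 30 minutes.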
D2 agonist: agonists of human D2 dopamine receptor (beta-arrestin) | activation, % (no concentration beside the values) | 360,000 tested, 0.084% active | P14416 | DiscoveRx PathHunter D2 beta-arrestin, luminescence, 90 min; 100% = 57 uM dopamine signal; in the data active = activation above about 40%; inconclusive = about 15% to 40%; inactive = below about 15%; note: compound concentration not given in the record; the text of the record calls up to 30% inactive
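DiscoveRx PathHunter D2 beta-arrestin cells (2,100/well) attached overnight, then compound-stimulated 90 min at 37 C in HBSS/10 mM HEPES/0.1% Tween-20 buffer; beta-galactosidase complementation read by luminescence after 1 h at ambient temperature. Dopamine 57 uM final (EC100) as control.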
TRPV1 PAM: human TRPV1 potentiation; Q8NER1; TRPV1-expressing cells, Fluo-8 calcium influx, capsaicin EC20 potentiation; host cell line not named in the record; control for the full effect not named in the record; potentiation, % at 8.33 µM; 320,000 tested, 0.02% active; AID 540277; active means potentiation above 80%; inconclusive means 30% to 80%; inactive means below 30%; note: 0% is about no effect
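TRPV1-expressing cells were cultured overnight at 35.5C and loaded with Fluo-8 calcium dye for 40 to 90 min at room temperature. After a 10 s baseline, compound was added and calcium influx was read kinetically for 3 min (ex 480/em 520 nm).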
Six1-Eya2 inh: Six1/Eya2 interaction inhibition; Q15475+O00167; AlphaScreen GST-Six1/His-Eya2 binding, biochemical; active compounds read low; control for the full effect not named in the record; activity change, % (test concentration not listed); 360,000 tested, 0.56% active; AID 651725; in the data active = activity change below about -65%; inconclusive = about -30% to -65%; inactive = above about -30%; note: % is set by controls: 0 for no effect and ±100 for the full control effect
Target sequence (O00167 whole entry, looked up): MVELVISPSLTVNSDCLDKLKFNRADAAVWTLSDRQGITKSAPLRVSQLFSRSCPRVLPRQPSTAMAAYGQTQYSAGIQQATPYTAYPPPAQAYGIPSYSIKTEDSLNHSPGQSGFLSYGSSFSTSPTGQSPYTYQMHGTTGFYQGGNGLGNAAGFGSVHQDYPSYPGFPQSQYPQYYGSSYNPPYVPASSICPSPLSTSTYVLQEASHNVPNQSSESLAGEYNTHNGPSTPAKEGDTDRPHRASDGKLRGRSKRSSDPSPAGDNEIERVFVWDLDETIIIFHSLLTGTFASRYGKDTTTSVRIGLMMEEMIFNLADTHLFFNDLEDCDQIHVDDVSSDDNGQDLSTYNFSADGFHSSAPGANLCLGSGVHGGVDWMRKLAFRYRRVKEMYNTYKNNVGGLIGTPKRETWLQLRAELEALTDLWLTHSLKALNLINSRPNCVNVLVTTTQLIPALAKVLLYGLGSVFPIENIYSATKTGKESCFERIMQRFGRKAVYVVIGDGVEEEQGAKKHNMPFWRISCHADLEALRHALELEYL
Target sequence (Q15475 whole entry, looked up): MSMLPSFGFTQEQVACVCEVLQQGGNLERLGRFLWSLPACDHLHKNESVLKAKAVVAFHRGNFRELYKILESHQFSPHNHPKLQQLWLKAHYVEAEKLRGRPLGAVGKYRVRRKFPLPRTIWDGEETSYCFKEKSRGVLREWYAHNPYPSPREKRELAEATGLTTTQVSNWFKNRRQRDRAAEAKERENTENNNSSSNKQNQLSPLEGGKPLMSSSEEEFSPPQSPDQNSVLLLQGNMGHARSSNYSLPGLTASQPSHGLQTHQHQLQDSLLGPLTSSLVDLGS
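AlphaScreen luminescence read after one hour at 37 °C in darkness. Pin-transferred compounds met GST-Six1 and His-Eya2 protein (5X stock 250 nM/500 nM) plus glutathione donor and Ni-chelate acceptor beads (5X, 50 ug/mL).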
D2 PAM: potentiates the human D2 dopamine receptor allosterically | 360,000 tested, 0.23% active | P14416 | potentiation, % (no concentration beside the values) | DiscoveRx D2 beta-arrestin cells, luminescence, 90 min; 100% = 57 uM dopamine signal; active = potentiation of 50% or more; inconclusive = 30% to 50%; inactive = 30% or less;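 note: compound concentration not given in the record; tested on top of an EC20 dose of dopamine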
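D2 cells co-treated with compound plus 50 nM dopamine (EC20) for 90 min at 37 deg C to detect potentiation. Beta-arrestin recruitment was read as enzyme-fragment luminescence after 1 h at ambient temperature. Full response was set by 57 uM dopamine.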
PINK1 modulator: modulators of PINK1 expression | PINK1 immunofluorescence, high-content cytometry, 24 h | Potency, µM (doses to about 76.6 µM), for the others: top-dose activation (PINK1 increase), usual class: activators | 410,000 tested, 0.2% active | AID 624263; active = well fitted activation curve with a large enough effect; inconclusive = small, poorly fitted or top-dose-only effect; inactive = flat fitted curve, though single readings scatter; cell line not stated here;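 note: potency is the fitted concentration of half-maximal effect; % of control where 0% means no effect; nearly all actives have a fitted effect of over 65% in size; a mitochondrial uncoupler was the plate control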
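Compound titrations (5 concentrations, 24 h) on a stable cell line; DMSO and CCCP controls. Endpoint: fixed-cell PINK1 immunofluorescence with mitochondrial, cell and nuclear markers, scanned by microplate cytometer.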
CtBP-E1A blk: inhibitors of CtBP/E1A interaction | activity change, % (concentration not given with the values) | AID 651724 | AlphaScreen GST-E1A/His-CtBP binding, 1536-well; active compounds read low; control for the full effect not named in the record | 340,000 tested, 0.49% active; in the data active means activity change below about -65%; inconclusive means about -30% to -65%; inactive means above about -30%; note: % is set by controls: 0 for no effect and ±100 for the full control effect
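GST-E1A and His-tagged CtBP (125 nM each as 5X stock) were preincubated with pin-transferred compound for 2 h at 37 °C in the dark, then glutathione donor and nickel acceptor beads were added for 1 h before AlphaScreen reading.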
* marks the source's active call; other numbers are inactive results; ? = inconclusive; . = not tested or not shown; [ ] = remark or other dose.

smiles	D2 agonist	D2 PAM	Sfp inh	TRPV1 PAM	PINK1 modulator	Six1-Eya2 inh	CtBP-E1A blk
O=C(N/N=C\c1cc([N+](=O)[O-])ccc1N1CCCC1)c1ccccn1	-1.2	-1	-7%	4	-1.2%	7	-8
CCC(Sc1nc(=O)cc(N)n1CCc1ccccc1)C(=O)Nc1ccccc1C#N (stereo not given)	0.4	-10	5%	.	4.9%	-7	-2
CCOc1ccc(-c2nc3scc(-c4cccs4)c3c(=O)[nH]2)cc1	-3.4	-9	13%	7	1.5%	0	9
Cc1cc(C(=O)CSc2nnnn2C)c(C)n1C1CC1	0.9	6	3%	19	-0.4%	-1	.
CC(C)Sc1nc(N2CCOCC2)c2c3c(sc2n1)COC(C)(C)C3	-3.2	-14	-5%	-18	4.6%	-2	-7
Cc1cc(C(=O)c2cnc(/N=C/N(C)C)s2)c(F)cc1Cl	0.2	-1	-8%	-27	1.8%	13	3
CCCCNC(=O)C[C@@H]1C[C@@]2(C(=O)OCC)CCCC=C2N(Cc2ccco2)C1=O	.	.	.	.	0.0%	1	1
Cc1[nH]c2ccccc2c1C(=O)CN1C(=O)NC2(CC(C)CC(C)(C)C2)C1=O (stereo not given)	8.2	-1	2%	-36	-4.3%	0	-26
O=C(CCOc1ccccc1)Nc1ccnn1C1CCN(Cc2ccc(F)cc2)CC1	-1.9	-38	7%	-10	0.4%	4	4
CC(C)Cn1c(=O)c(C(=O)Nc2cnccn2)c(O)c2ccccc21	-2.6	-4	-2%	-3	-0.5%	9	-5
COCCn1nnnc1C(c1cccc(OC)c1OC)N1CCN(C(=O)c2ccco2)CC1 (stereo not given)	2.8	1	6%	1	1.2%	-1	6
CS/C(=C(/C#N)S(=O)(=O)c1ccc(Cl)cc1)N1CCOCC1	5.9	3	1%	8	-1.0%	-3	.
NS(=O)(=O)c1cc(C(=O)OCC(=O)NC2CC2)ccc1Cl	0.3	-7	4%	2	-0.3%	1	2
O=C(Nc1cccc2ncccc12)c1cccc(F)c1	-1.2	-13	8%	-4	4.1%[38.3 µM]	-3	8
CC(=O)c1ccc(NC(=O)C2CCCN2S(=O)(=O)c2cccc3cccnc23)cc1 (stereo not given)	-0.4	-3	4%	-1	1.7%	-3	-2
COc1ccc(CC(=O)NCC(=O)Nc2ccccc2Br)cc1	-3.3	-4	14%	-13	3.6%	-8	-1
CCOC1(OCC)N=C(N)C2(C#N)C(c3cccc(C)c3)C12C#N (stereo not given)	0.4	-3	10%	24	1.4%	-1	3
COc1ccc(CCN=C(C)C2=C(O)C(c3ccccc3)OC2=O)cc1OC (stereo not given)	-4.5	-2	14%	-9	7.6%	-7	5
CCCCN(C(=O)CSc1nc(CCC)cc(=O)[nH]1)c1c(N)n(Cc2ccccc2)c(=O)[nH]c1=O	0.6	-3	.	.	-1.6%	-5	-20
Cc1ccc(Cn2c(SCC(=O)N3CC(=O)Nc4ccccc43)nc3ccccc3c2=O)cc1	0.0	6	-13%	28	2.0%	-5	0

Not a retest: entries from further up.
smiles	D2 agonist	D2 PAM	Sfp inh	TRPV1 PAM	PINK1 modulator	Six1-Eya2 inh	CtBP-E1A blk
COCCn1nnnc1C(c1cccc(OC)c1OC)N1CCN(C(=O)c2ccco2)CC1 (stereo not given)	2.8	1	6%	1	1.2%	-1	6
CS/C(=C(/C#N)S(=O)(=O)c1ccc(Cl)cc1)N1CCOCC1	5.9	3	1%	8	-1.0%	-3	.

Later entries:
smiles	D2 agonist	D2 PAM	Sfp inh	TRPV1 PAM	PINK1 modulator	Six1-Eya2 inh	CtBP-E1A blk
CN1CCOCCOCCOCCN(C)C1=S	-1.5	-14	11%	6	2.4%	-8	0
CCN(c1ccccc1)S(=O)(=O)c1ccc(C(=O)N(C)Cc2cccs2)cc1	-3.1	-3	.	.	0.4%	-3	1
O=C(CCN1C(=O)S/C(=C\c2ccccc2)C1=O)NC1CCS(=O)(=O)C1 (stereo not given)	0.8	-6	25%	17	-0.3%	-1	-2
O=C(NC1CCCCC1)C(c1cccs1)N(CCCN1CCOCC1)C(=O)c1ccc(-c2ccccc2)[nH]1 (stereo not given)	-1.9	-17	?	?	0.4%	-17	-18
Cc1cc(C)cc(C(=O)N2CCC(CCC(=O)NC3CC3)CC2)c1	-0.4	-11	3%	8	-0.2%	18	1
CCN(CC)C(=O)c1cc2cc([N+](=O)[O-])ccc2s1	-3.6	-6	7%	-1	-0.8%	1	0
COc1ccccc1N1CCN(CCC(=O)Nc2ccc3c(c2)OCO3)CC1	-0.8	-16	24%	0	-1.2%	-10	-5
CCN(C#N)c1nc(NC(C)C)nc(NC(C)C)n1	-1.3	-3	11%	-3	-2.5%[38.3 µM]	1	-2
Cc1ccnc(NC(=O)c2cccc(OC(F)F)c2)n1	-5.4	-7	5%	2	-2.5%	4	2
Cn1c(SCc2ccccc2)nnc1-c1cccs1	-2.1	7	-3%	-12	0.1%	3	7

Structural class, the entries above with a nitro group on carbon.
smiles	D2 agonist	D2 PAM	Sfp inh	TRPV1 PAM	PINK1 modulator	Six1-Eya2 inh	CtBP-E1A blk
O=C(N/N=C\c1cc([N+](=O)[O-])ccc1N1CCCC1)c1ccccn1	-1.2	-1	-7%	4	-1.2%	7	-8
CCN(CC)C(=O)c1cc2cc([N+](=O)[O-])ccc2s1	-3.6	-6	7%	-1	-0.8%	1	0

Going on with the list.
smiles	D2 agonist	D2 PAM	Sfp inh	TRPV1 PAM	PINK1 modulator	Six1-Eya2 inh	CtBP-E1A blk
OCCNc1ncnc2c1ncn2[C@H]1CN(C2CCCC2)C[C@@H](CO)O1	-4.6	-4	.	.	0.5%	2	0
O=C(c1ccc(COc2ccccc2Br)o1)N1N=C(C(F)F)CC1(O)C(F)F (stereo not given)	-0.8	-15	-26%	-2	1.6%	-1	-2
CCOC(=O)N1CCN(C(=O)CSc2nc(C)nc3c2c(=O)n(C)c(=O)n3C)CC1	-3.3	-1	10%	-10	1.0%	-4	4
CN(C)S(=O)(=O)c1cccc(-c2nnc(SCCNCCO)n2-c2ccc(F)cc2)c1	-19	-2	-17%	4	-1.1%	21	0
CC(C)(C)Nc1cccccc1=O	-2.1	0	-21%	1	0.8%	6	11
O=C(Nc1nnc([C@@H]2C[C@H](O)[C@@H](CO)O2)s1)c1cccc(Cl)c1	-1.8	-2	.	.	0.2%	3	-18
COc1cc(/C=N/NC(=O)c2cc(-c3cccs3)nc3ccccc23)ccc1O	-2.2	-16	22%	-2	14%	-22	.
Cc1ccc2nc(-c3ccc(NC(=O)CSCC(=O)O)cc3)sc2c1	-0.5	-3	0%	2	0.8%	-2	?
CCOc1ccccc1NC(=O)NCc1ccccn1	5.3	1	13%	-4	-0.2%	-1	-10
COc1ccc(S(=O)(=O)N2CCC(O)(c3ccc(Cl)cc3)CC2)cc1OC	0.1	1	16%	3	-0.3%	-4	1
CC(=O)Nc1cc(-c2ccc(C(=O)N3CCOCC3)cc2)cn2c(-c3ccc(S(C)(=O)=O)cc3)cnc12	-2.2	-3	.	.	-0.1%	9	0
O=C(CN1CCCCCCC1)NC(=O)NC1CCCCC1	-1.3	0	10%	-18	3.3%	7	0
Cc1cccc(N2CC(C(=O)O)CC2=O)c1 (stereo not given)	-4.5	-13	13%	0	-0.2%	3	2
CC(c1ccccc1)C1C(C#N)=C(N)SC(N)=C1C#N (stereo not given)	-3.1	3	22µM*	6	2.1%	14	12
COC(=O)NC(NC(=S)Nc1ccccc1OC)C(Cl)(Cl)Cl (stereo not given)	-6.3	-33	-17%	4	-2.7%	4	5
CC1(c2nnc(Cc3ccccc3)o2)CC(c2ccccc2F)=NO1 (stereo not given)	-2.6	-5	.	-44	0.4%	1	.
CCOc1ccc(NS(=O)(=O)c2csc(C(N)=O)c2)cc1	-7.1	1	14%	-9	-2.5%	6	-15
CCOc1ccc(N=C2SC(C(=O)O)CC(=O)N2C)cc1 (stereo not given)	-1.4	-5	-16%	12	0.0%	-2	4
Cc1ccc(C(=O)C2CCN(CC(=O)NC3CCCC3)CC2)cc1	-0.5	-10	18%	3	1.6%	-8	-7
Cc1nn(C(=O)c2ccco2)c(C)c1Sc1ccccc1	-5.6	-1	-14%	-10	15%	0	4
O=C(Cc1ccccc1)NCC(=O)OCc1cccc([N+](=O)[O-])c1	-1.6	0	2%	-24	4.0%	3	-1
COc1ccc(-n2ccc(=O)c(C(=O)O)n2)c(OC)c1	-0.7	0	4%	4	2.0%	5	1
COc1ccc2oc(C(=O)OCC(=O)N(Cc3ccccc3)C(C)(C)C)c(C)c2c1	1.9	-12	3%	10	0.6%	1	-3
CC(=O)Nc1ccc(S(=O)(=O)NCC2CCC(C(=O)NCCC(C)C)CC2)cc1 (stereo not given)	-2.3	-8	13%	7	-0.4%	-1	4
COC1=Cc2c(ccc3ccc(=O)oc23)OC1(C)C	3.7	-12	-15%	-8	.	10	1
O=C(NCC(=O)N1CCN(c2ccccc2F)CC1)c1ccc(Br)o1	5.8	-4	.	-2	0.9%	9	-21
C=CCS/C(=N\n1cnc2ccccc2c1=O)N1CCCCC1	-2.8	-9	13%	8	0.1%	3	5
CN(CC(=O)Nc1ccccc1Cl)C(=O)c1cccc(S(=O)(=O)N2CCN(c3ccc(F)cc3)CC2)c1	5.4	-36	-6%	-9	-0.6%	-5	2
Nc1c(Cl)cc(Cl)cc1C(=O)OCC(=O)NC1CC1	9.5	14	4%	11	-0.5%	10	0
CCOC(=O)C(CC)(CCC(=O)O)c1csc(N)n1 (stereo not given)	0.8	2	21%	4	-2.3%	4	-6
O=C(C1CCC(CNS(=O)(=O)c2cccc3cccnc23)CC1)N1CCCC1 (stereo not given)	0.6	-3	-1%	-5	-1.1%	4	0
O=C(c1cc2ccccc2oc1=O)N(Cc1cccc(Br)c1)C1CCS(=O)(=O)C1 (stereo not given)	-6.9	-10	3%	-13	-0.3%	5	0
COc1ccccc1OCC(=O)NC1CCCCCCC1	-2.3	-17	.	.	7.3%	-2	9
Cc1ccc([C@H]2C[C@H](O)[C@@H](n3cc(C4CC4)nn3)CN2C(=O)c2cccs2)cc1	3.5	4	.	.	0.9%	20	4
O=C(NCCc1ccccc1)c1ccccc1NC(=O)C1CCCO1 (stereo not given)	-4.3	-10	13%	1	3.3%	-1	-4

Bioassay records (PubChem BioAssay)
